# High-throughput results (PubChem BioAssay)
# miR-21 reporter – raises the signal of a miR-21 reporter; HeLa miR-21 FLuc reporter, luciferase, 48 h; 340,000 tested, under 10 active; Potency, µM (doses to about 38.3 µM), inactives show at the highest dose reporter change, positive = more light; active = well fitted rising curve with a large enough effect; inconclusive = small, poorly fitted or top-dose-only effect; inactive = no such curve, though single readings can be large or run the other way;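 also: % of control where 0% means no effect; miR-21 action dims this reporter so a rising signal means less miR-21 action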
#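 HeLa cells stably expressing CMV-driven firefly luciferase with a downstream miR-21 binding sequence, endogenously expressing miR-21, were treated with titrations (up to about 40uM final) for 48 hours at 37 degree Celsius. Luciferase luminescence was read after lysis.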
# Rango dissoc inh – prevents RanGTP from dissociating the Rango-importin beta complex; Biochemical FRET Rango-importin beta, RanGTP-induced dissociation; actives 0.071% (n = 340,000); Potency, µM (titrated, usually from 46.1 µM), for the others: top-dose activity change, negative = inhibition; O95149+P62826; active means falling FRET ratio curve, often poorly fitted, with flat reads before Ran was added; inconclusive means other falling curves, or compound fluorescence or quenching; inactive means flat or rising ratio curve;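 also: potency is read from the fitted curve at half-maximal effect; % of control where 0% means no effect; nearly all actives have a fitted effect of over 45% in size; -100% = wells without RanGTP and RCC1; the record marks most hits as doubtful in a second field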
#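 Two FRET readings bracket the reaction: one 5 min after compound meets Rango–importin beta, another 45 min after RanGTP-RCC1 (0.6 uM Ran, 0.2 uM RCC1, 2 mM GTP) is added. Only the second defines inhibition.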
# Rango complex inh – inhibitors of Rango-importin beta complex formation | Q14974 | Rango CFP/YFP FRET sensor + importin beta, 45 min | Potency, µM (top dose mostly 92.2 µM), inactives show at the highest dose inhibition of complex formation | actives 0.031% (n = 340,000); active = rising FRET ratio curve, often small or poorly fitted; inconclusive = mostly compound fluorescence or quenching in the first reads; inactive = flat curves in all reads;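 also: potency is read from the fitted curve at half-maximal effect; 0% = DMSO wells and 100% = buffer wells lacking importin beta; nearly all actives have a fitted effect of over 15% in size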
# Target sequence (Q14974 whole entry, looked up): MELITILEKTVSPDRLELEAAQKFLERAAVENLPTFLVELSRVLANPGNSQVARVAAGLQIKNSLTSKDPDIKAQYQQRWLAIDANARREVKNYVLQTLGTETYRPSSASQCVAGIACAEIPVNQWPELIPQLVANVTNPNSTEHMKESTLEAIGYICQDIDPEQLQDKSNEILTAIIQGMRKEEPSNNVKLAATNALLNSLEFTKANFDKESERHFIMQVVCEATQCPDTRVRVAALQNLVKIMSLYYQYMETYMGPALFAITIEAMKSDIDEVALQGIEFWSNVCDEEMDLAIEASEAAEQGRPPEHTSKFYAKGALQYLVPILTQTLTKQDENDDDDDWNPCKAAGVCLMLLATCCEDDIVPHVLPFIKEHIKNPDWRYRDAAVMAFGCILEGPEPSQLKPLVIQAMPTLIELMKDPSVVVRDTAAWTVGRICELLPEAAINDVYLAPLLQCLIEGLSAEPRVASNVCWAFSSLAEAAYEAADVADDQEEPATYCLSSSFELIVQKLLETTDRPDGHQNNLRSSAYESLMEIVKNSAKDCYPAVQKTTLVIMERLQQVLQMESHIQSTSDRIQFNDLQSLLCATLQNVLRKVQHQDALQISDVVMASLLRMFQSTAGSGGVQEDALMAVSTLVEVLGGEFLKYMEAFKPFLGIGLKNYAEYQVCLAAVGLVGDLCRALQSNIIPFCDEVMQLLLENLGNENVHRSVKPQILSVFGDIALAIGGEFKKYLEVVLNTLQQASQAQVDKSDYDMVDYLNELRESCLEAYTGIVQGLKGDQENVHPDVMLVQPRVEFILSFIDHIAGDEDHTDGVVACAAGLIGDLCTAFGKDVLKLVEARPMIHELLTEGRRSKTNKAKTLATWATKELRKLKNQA
#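 FRET biosensor (snurportin 1 IBB flanked by EYFP and cerulean), 50 nM, with compound 5 min, then 0.125 microM importin beta in PBS, 1 mM DTT, 0.02% Tween-20, 0.1% BSA. CFP/YFP ratio read after 45 min at room temperature; pre-read flags interference.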
# GLA inh pH 4.5 – alpha-galactosidase A (human) inhibition, pH 4.5; P06280; purified enzyme, 4-MU-alpha-Gal fluorescence, pH 4.5; activity change, negative = inhibition, % at 105 µM; 230,000 tested, under 10 active; AID 1467; inconclusive = small, poorly fitted or top-dose-only inhibition, or a rising curve; inactive = flat fitted curve, though single readings scatter; no compound was filed as active;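 also: 0% = full activity with enzyme and -100% = basal without enzyme; dose as in the result columns while the protocol names 77 µM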
# Numbers without * were called inactive; ? = inconclusive; . = not tested or not shown; & = joins results of further samples. Some of the compounds tested, so the mix of outcomes need not match the whole.
miR-21 reporter	Rango dissoc inh	Rango complex inh	GLA inh pH 4.5	molecule
-6%	-9%	-1.7%	.	CC1CCCN(CCC(=O)Nc2ccc(F)c(F)c2)C1 (centres undefined)
-3%	?	2.4%	-3	COc1ccc(S(=O)(=O)NCc2ccc3c(c2)cc(C)n3C)cc1
-4%	14%	0.3%	.	Cc1cc(=O)oc2c3c(cc(OCC(=O)NCCC(=O)N[C@@H](C)C(=O)O)c12)OC(C)(C)CC3
.	1%	0.2%	.	Cc1ccc(O)c(N=Nc2nccs2)c1
-20%	9%	-2.6%	5	O=C(Nc1ccccc1)N1CCCC(c2nc(-c3cccs3)no2)C1 (centres undefined)
1%	29%	0.0%	.	Cc1cccc(N(CC(=O)NC(C)C)C(=O)CCC(=O)Nc2nccs2)c1
-31%	-10%	6.2%	3	O=C(Nc1ccc2c(c1)OCO2)c1noc2c1CCCCC2
.	17%	1.7%	.	O=S(=O)(NCc1cccs1)c1ccccc1Cl

# A draw from above in order of SMILES length, ascending.
miR-21 reporter	Rango dissoc inh	Rango complex inh	GLA inh pH 4.5	molecule
.	17%	1.7%	.	O=S(=O)(NCc1cccs1)c1ccccc1Cl
-31%	-10%	6.2%	3	O=C(Nc1ccc2c(c1)OCO2)c1noc2c1CCCCC2
1%	29%	0.0%	.	Cc1cccc(N(CC(=O)NC(C)C)C(=O)CCC(=O)Nc2nccs2)c1

# The listing continues:
miR-21 reporter	Rango dissoc inh	Rango complex inh	GLA inh pH 4.5	molecule
-8%	-26%	0.1%	.	COc1ccc(C(=O)NC2CC2)cc1OC1CCN(Cc2ccc(F)cc2F)CC1
-4%	-8%	?	-9	CCOC(=O)C(C)n1cnc2sc3c(c2c1=O)CCC3 (centres undefined)
-2%	9%	1.8%	6	Cc1ccc(C(=O)N/N=C/c2ccc(S(=O)(=O)O)o2)c(Cl)c1
.	1%	-1.7%	.	CC1CC(C)CN(S(=O)(=O)c2ccc(NC(=O)[C@@H]3CCCN3C(=O)c3cccs3)cc2)C1 (some centres undefined)
-2%	7%	0.5%	-7	COc1ccc(/C=N/NC(=O)c2cccc(OC(F)(F)C(F)F)c2)c(OC)c1OC
-3%	-14%	2.4%	5	O=C(c1cccc(N2CCCC2=O)c1)N1CCOCC1
-4%	8%	0.7%	-2	O=C(C1=C[C@@H](c2csc3ccccc23)C[C@@H](OCc2ccc(CO)cc2)O1)N1CCOCC1
8%	-9%	-6.7%	5	Cc1ccc(Nc2nnc(SCC(=O)NC3CCCc4ccccc43)s2)cc1 (centres undefined)

# 5 compounds drawn at random from those above, as already listed:
miR-21 reporter	Rango dissoc inh	Rango complex inh	GLA inh pH 4.5	molecule
8%	-9%	-6.7%	5	Cc1ccc(Nc2nnc(SCC(=O)NC3CCCc4ccccc43)s2)cc1 (centres undefined)
-3%	-14%	2.4%	5	O=C(c1cccc(N2CCCC2=O)c1)N1CCOCC1
.	1%	-1.7%	.	CC1CC(C)CN(S(=O)(=O)c2ccc(NC(=O)[C@@H]3CCCN3C(=O)c3cccs3)cc2)C1 (some centres undefined)
-8%	-26%	0.1%	.	COc1ccc(C(=O)NC2CC2)cc1OC1CCN(Cc2ccc(F)cc2F)CC1
-2%	9%	1.8%	6	Cc1ccc(C(=O)N/N=C/c2ccc(S(=O)(=O)O)o2)c(Cl)c1

# Other entries follow:
miR-21 reporter	Rango dissoc inh	Rango complex inh	GLA inh pH 4.5	molecule
0%	-21%	0.1%	.	Cc1cc(C)n(CC(=O)NC2CCCN(Cc3ccc(Cl)cc3)C2)n1 (centres undefined)
0%	1%	0.8%	9	CC(C)CC(=O)NCCc1ccncc1
-40%	0%	-0.6%	2	Cc1ccc(NC(=O)c2ccc(OC(=O)c3cc4ccccc4o3)cc2)cc1
2%	0%	-1.9%	.	CC(C)(CO)NS(=O)(=O)c1ccc2c(c1)Cc1cc(S(=O)(=O)NC(C)(C)CO)ccc1-2
.	-5%	5.4%	.	COc1ccc(CNS(=O)(=O)c2ccc(C)cc2)cc1
-1%	1%	-0.4%	-2	Cc1ccc(S(=O)(=O)Nc2cc(=O)[nH]c(SCC(=O)Nc3ccccc3Cl)n2)cc1
4%	-7%	-2.9%	.	O=C(CSc1nc(Nc2ccccc2)nc(N2CCOCC2)n1)NC1CCCCC1
-11%	-21%	0.3%	5	O=C(NCc1ccc2c(c1)OCO2)C(C(=O)c1ccccc1)n1cc(Cl)ccc1=O (centres undefined)

# More results follow.
miR-21 reporter	Rango dissoc inh	Rango complex inh	GLA inh pH 4.5	molecule
-56%	-18%	0.0%	2	C=C(C)CN(CC)C(=O)CCc1nnc(CCCc2ccccc2)o1
14%	-6%	0.0%	-14	CC1=C(C(=O)Nc2ccccc2C(F)(F)F)C(c2sccc2C)NC(=S)N1 (centres undefined)
-21%	-6%	-3.4%	4	COc1cc(NCc2ccccc2O)c2ncccc2c1
-10%	-16%	-0.1%	-1	COc1ccc(-n2cc(CNC3CCC(O)CC3)c(-c3cccc(F)c3)n2)cc1 (centres undefined)
-1%	10%	-0.3%	4	O=c1[nH]c(=S)[nH]nc1Cc1ccccc1
-39%	23%	5.3%	3	Oc1ccc(Br)cc1CNc1ccccn1
0%	-9%	5.5%	.	CCN(Cc1nc(-c2cccc(C)c2)no1)C(=O)c1ccc2c(c1)OCO2
.	3%	3.7%	.	Cc1c(CCCC(=O)O)sc(N)c1C(=O)c1cccc(C(F)(F)F)c1

# Other entries:
miR-21 reporter	Rango dissoc inh	Rango complex inh	GLA inh pH 4.5	molecule
.	31%	2.9%	.	CN(CC(=O)Nc1cccc(F)c1)C(=O)c1cc([N+](=O)[O-])ccc1N1CCOCC1
-29%	0%	0.3%	-3	CC(C)Oc1ccc(C(=O)N2CCCc3ccccc32)cc1
-5%	-4%	2.8%	-1	COc1cc(C(CCN2CCCCC2)c2c(OC)cc(OC)c3c(C)cc(=O)oc23)cc(OC)c1OC (centres undefined)
-22%	14%	0.0%	-6	C/C(=N\NC(=O)c1cccc(Br)c1)c1cccc(NC(=O)c2ccc(C)o2)c1
-6%	0%	-0.5%	-12	O=C(O)CCCC(=O)N(Cc1ccccc1)Cc1ccccc1
7%	0%	5.6%	-4	Cc1cccc(CSC2=CS(=O)(=O)c3ccccc3N2)c1
0%	1%	-0.3%	12	O=C(O)c1c[nH]c(=O)c2ccccc12
-3%	0%	?	-4	CCOC(=O)CNC(=O)CSc1nc(-c2ccc(OC)cc2)ns1

# The list goes on:
miR-21 reporter	Rango dissoc inh	Rango complex inh	GLA inh pH 4.5	molecule
-1%	?	?	3	CCOCCc1nnc(NC(=O)Cc2ccc(Br)cc2)s1
22%	15%	0.8%	.	COc1cc(C(=O)Nc2cccc(-n3cnnn3)c2)cc(Cl)c1OC
19%	4%	?	2	CNc1ncc(-c2nnnn2-c2ccccc2)c(-c2ccccc2)n1
-4%	-5%	-3.6%	-3	NC(=O)C1=C[C@@H](c2coc3ccccc3c2=O)C[C@@H](OCCCCO)O1
0%	1%	0.3%	.	O=C(CNC(=S)N(CCCN1CCOCC1)Cc1cccs1)NCc1ccc(Cl)cc1
.	0%	2.5%	.	Cc1c(NS(=O)(=O)c2cccc(C(=O)NCc3ccccc3Cl)c2)c(=O)n(-c2ccccc2)n1C
-4%	.	.	5	Cc1cc(C)c(O)c(N)c1
-7%	-6%	3.9%	-1	C=CCNCCCOc1ccc(Cl)cc1C(C)(C)C

# Whole records from above:
# O=C(CNC(=S)N(CCCN1CCOCC1)Cc1cccs1)NCc1ccc(Cl)cc1 reads miR-21 reporter: 0%; Rango dissoc inh: 1%; Rango complex inh: 0.3%; GLA inh pH 4.5: .
# C=CCNCCCOc1ccc(Cl)cc1C(C)(C)C reads miR-21 reporter: -7%; Rango dissoc inh: -6%; Rango complex inh: 3.9%; GLA inh pH 4.5: -1
# CNc1ncc(-c2nnnn2-c2ccccc2)c(-c2ccccc2)n1 reads miR-21 reporter: 19%; Rango dissoc inh: 4%; Rango complex inh: ?; GLA inh pH 4.5: 2

# New compounds follow.
miR-21 reporter	Rango dissoc inh	Rango complex inh	GLA inh pH 4.5	molecule
-8%	-7%	0.2%	-4	CCN(C(=O)COC(=O)CNC(=O)C12CC3CC(CC(C3)C1)C2)C1CCS(=O)(=O)C1 (centres undefined)
.	-6%	3.4%	.	COc1ccc(OC)c(S(=O)(=O)NC2CC(=O)N(c3cccc(F)c3)C2)c1 (centres undefined)
-2%	-4%	2.4%	3	CCC(c1nnnn1C1CCCC1)N1CCC(C(N)=O)CC1 (centres undefined)
-63%	1%	1.0%	-19	Cc1cccc2nc(CSc3nc4ccccc4o3)cn12
-2%	-3%	-2.4%	10	CN(C)C1C(=O)c2ccccc2C1=O
3%	-12%	4.9%	2	COCCn1c(CCc2ccccc2)n[nH]c1=S
-10%	1%	1.0%	-1	NC(=O)c1ccccc1NC(=O)c1ccccc1F
-31%	-7%	-8.2%	.	O=C(Nc1ncc([N+](=O)[O-])s1)c1ccccc1Br

# (next part)
miR-21 reporter	Rango dissoc inh	Rango complex inh	GLA inh pH 4.5	molecule
.	14%	0.0%	.	CCC1(C)NC(=O)N(CC(=O)N2CCN(c3cccc(Cl)c3)CC2)C1=O (centres undefined)
.	-8%	-0.6%	.	COc1ccc(C(=O)Nc2ccc(Cl)cn2)cc1S(=O)(=O)N1CCCC1
.	4%	-1.9%	.	Cn1c(NCc2ccccc2Cl)nc2ccccc21
.	-10%	-2.1%	.	Cc1ccc(NC(=O)c2oc3ccc(Br)cc3c2C)cc1S(=O)(=O)N1CCOCC1
.	10%	-3.0%	.	Cc1cc2nc(N3CCN(C(=O)c4ccco4)CC3)sc2cc1C
2%	2%	3.7%	3	CC1(C)CC(=O)N(CC(=O)O)c2ccccc2S1
-41%	2%	0.1%	.	Cc1cc(NC(=O)c2cccnc2)ccc1Br
-4%	16%	0.8%	0	Cc1ccc(N2CCN(C(=S)c3ccc(-c4ccccc4[N+](=O)[O-])o3)CC2)cc1

# Following part.
miR-21 reporter	Rango dissoc inh	Rango complex inh	GLA inh pH 4.5	molecule
3%	-2%	1.6%	.	COc1ccc(N2CCN(CC(=O)c3ccc(Cl)cc3)CC2)cc1
16%	0%	0.9%	-22	O=C(c1ccco1)N1CCN(c2nc(C(F)(F)F)nc3c2nnn3Cc2ccccc2)CC1
-1%	21%	0.4%	.	COc1ccccc1C(=O)NNC(=O)C(=O)N1CCCCC1
.	6%	-1.2%	.	N#Cc1ccc(NC(=S)NC(=O)C2CCCCC2)cc1
2%	0%	-0.4%	0	CC1(C)Cc2c(oc3ncn4ncnc4c23)CO1
-1%	1%	-0.9%	1	COc1ccc(OC)c(C(=O)Cn2nnc3ccccc3c2=O)c1
-9%	-15%	?	.	CCN1CCc2nc3sc(C(=O)N4CCc5ccccc5C4)c(N)c3cc2C1
-8%&7%	16%	-3.6%	.	Cc1ccc(NC(=O)C2CCCN2S(=O)(=O)c2cccc3cccnc23)c(C)c1 (centres undefined)
0%	-14%	-0.7%	-3	Cc1c(C(=O)N2CCc3ccccc3C2)oc2ccc(S(=O)(=O)N3CCCCCC3)cc12
-20%	2%	0.0%	7	C=CCOC(=O)C1=C(C)NC2(O)c3ccccc3C(=O)C12O (centres undefined)
